UCH37 DUB inh: human UCH37 deubiquitinating enzyme inhibition; purified proteasome/UCH37, Ub-AMC cleavage fluorescence; AID 588478; 0.33% of 330,000 active; inhibition, % (test concentration not listed);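 active = mean of two replicates above 20%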;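 also: 0% = compound-free wells with enzyme and 100% = wells lacking proteasome; stock transfer was 100 nL into about 20 µL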
Target sequence (Q9Y5K5 whole entry, looked up): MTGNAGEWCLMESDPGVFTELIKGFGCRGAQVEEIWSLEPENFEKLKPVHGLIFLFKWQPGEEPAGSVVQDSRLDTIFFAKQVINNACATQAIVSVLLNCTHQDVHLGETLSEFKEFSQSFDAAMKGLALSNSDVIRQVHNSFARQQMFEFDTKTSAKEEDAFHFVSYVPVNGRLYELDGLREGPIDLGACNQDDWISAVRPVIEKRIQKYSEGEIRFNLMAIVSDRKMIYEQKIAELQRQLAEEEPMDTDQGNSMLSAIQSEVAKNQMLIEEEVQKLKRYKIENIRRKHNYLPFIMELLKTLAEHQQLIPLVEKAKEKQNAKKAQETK
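Signal – fluorescence, ex 355 nm, em 460 nm · System – Proteasome-bound UCH37 · Input – 0.15 nM proteasome as dispensed · Timing – 30 min preincubation with enzyme, 25 min cleavage at room temperature · Read-out basis – percent inhibition of cleavage signal versus uninhibited and no-proteasome wells · Medium – Tris-HCl pH 7.4 with ATP-MgCl2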
Active calls of the source: *. This is a subset; count on the stated rates, not on these rows.

Results for CC(=NNC(=O)c1cc(C)nc2ccccc12)c1cccc(Cl)c1 ?
UCH37 DUB inh: 2.3

What do the screens show for `Nc1nonc1-n1nnc(C(=O)NN=Cc2cccnc2)c1CSc1ccccc1`?
UCH37 DUB inh: 2.4

Results for Cc1c(C=NO)sc2ccccc12 ?
UCH37 DUB inh: 6.3

Results for Cc1cccc(C=NNC(=O)c2ccc(Br)cc2)c1 ?
UCH37 DUB inh: -1.5

Results for Cc1c(C(=O)NN=Cc2cccnc2)sc(=S)n1C ?
UCH37 DUB inh: 9.5

Results for CCCOc1ccc(-c2c(C(=O)NN=Cc3ccc(OC)cc3)nnn2-c2nonc2N)cc1 ?
UCH37 DUB inh: 0.6

Results for CC(=NNC(=O)c1nnn(-c2nonc2N)c1-c1cccs1)c1ccncc1 ?
UCH37 DUB inh: 0.3

Results for COc1ccc(C=NNC(=S)NC2CCS(=O)(=O)C2)cc1OC (stereo not given) ?
UCH37 DUB inh: 9.9

What do the screens show for `CCOc1cccc(-c2c(C(=O)NN=Cc3ccc(C)s3)nnn2-c2nonc2N)c1`?
UCH37 DUB inh: 3.5

How did COc1cc(OC)cc(C(=O)NN=Cc2ccoc2)c1 do in these assays?
UCH37 DUB inh: 1.2

Results for Cc1cccc(NC(=S)NN=C2CC(C)(C)Oc3ccc(O)cc32)c1 ?
UCH37 DUB inh: -12.2

How did CC(=NNC(=O)c1c([N+](=O)[O-])c(C)nn1C)c1ccc(NC(=O)C2CCCC2)cc1 do in these assays?
UCH37 DUB inh: 2.0

How did CCn1cc(C=NNC(=O)c2csc3ccccc23)c(C)n1 do in these assays?
UCH37 DUB inh: 2.9

What do the screens show for `CCCn1c(C)csc1=NC(=S)Nc1ccccc1`?
UCH37 DUB inh: 2.3

How did CN(C)c1ccc(C=NNC(=S)SCN2C(=O)C3CCC(C)(C2=O)C3(C)C)cc1 (stereo not given) do in these assays?
UCH37 DUB inh: -1.9

What do the screens show for `Cc1cc(C=NNC(=O)c2cccc([N+](=O)[O-])c2)c(C)n1-c1ccccc1`?
UCH37 DUB inh: 7.5

What do the screens show for `O=C(CNC(=O)c1cccc(F)c1)NN=Cc1cccs1`?
UCH37 DUB inh: 2.1

How did Cc1ccc(C(=O)NN=Cc2ccc(S(=O)(=O)O)o2)c(Cl)c1 do in these assays?
UCH37 DUB inh: 3.2

What do the screens show for `COc1cc(C=NNC(=Nc2ccc(C)cc2)c2nc3ccccc3s2)ccc1O`?
UCH37 DUB inh: -22.5

What do the screens show for `CCOC(=O)c1c(N=CC2C(=O)CC(C)(C)CC2=O)sc2c1CCCC2`?
UCH37 DUB inh: -1.9

How did CC(=NNC(=O)c1cc(C)oc1C)c1ccc2c(c1)OCO2 do in these assays?
UCH37 DUB inh: 2.0

What do the screens show for `Cc1cc(C(=O)NN=C2CC(=O)CC(C)(C)C2)n[nH]1`?
UCH37 DUB inh: 2.6

Results for COc1ccc(OC)c(C=NNC(=O)CCc2c(C)n[nH]c2C)c1 ?
UCH37 DUB inh: -495.2

How did C=CCNC(=S)NN=Cc1ccc(-c2ccc(OC)cc2)o1 do in these assays?
UCH37 DUB inh: -33.9

An excerpt from further up, as a working copy:
How did CCn1cc(C=NNC(=O)c2csc3ccccc23)c(C)n1 do in these assays?
UCH37 DUB inh: 2.9

What do the screens show for `CCCn1c(C)csc1=NC(=S)Nc1ccccc1`?
UCH37 DUB inh: 2.3

How did CN(C)c1ccc(C=NNC(=S)SCN2C(=O)C3CCC(C)(C2=O)C3(C)C)cc1 (stereo not given) do in these assays?
UCH37 DUB inh: -1.9

What do the screens show for `Cc1cc(C=NNC(=O)c2cccc([N+](=O)[O-])c2)c(C)n1-c1ccccc1`?
UCH37 DUB inh: 7.5

Carrying on.
How did O=C(CN1CCSCC1)NN=Cc1ccc(F)cc1F do in these assays?
UCH37 DUB inh: 2.7

How did COc1ccccc1C(=O)NCC(=O)NN=Cc1ccc([N+](=O)[O-])cc1 do in these assays?
UCH37 DUB inh: 1.8

Results for O=C(NN=Cc1cc([N+](=O)[O-])ccc1O)c1c[nH]c2ccccc12 ?
UCH37 DUB inh: 4.7

What do the screens show for `COc1cccc(C=NNC(=O)C(C)n2nnc3ccccc32)c1` (stereo not given)?
UCH37 DUB inh: 3.8

How did CCOc1cc(C=NNC(=O)CN2CCCCC2)ccc1OCc1ccccc1 do in these assays?
UCH37 DUB inh: 3.6

How did COc1ccc(C=Nn2c(COc3ccccc3)n[nH]c2=S)cc1OC do in these assays?
UCH37 DUB inh: 6.0

Results for COc1cc(C=NNC(=O)CCn2c3ccccc3c3ccccc32)cc(OC)c1OC ?
UCH37 DUB inh: -0.9

Results for Cc1ccc(N2CC(C(=O)NN=Cc3c(F)cccc3Cl)CC2=O)cc1 (stereo not given) ?
UCH37 DUB inh: 4.2

Results for CCN(CC)S(=O)(=O)c1cccc(C(=O)NN=C(C)c2cccs2)c1 ?
UCH37 DUB inh: -3.8

How did CCCNC(=O)OC[C@H]1O[C@H](CCON=CC[C@@H]2C=C[C@H](OC(C)=O)[C@@H](COC(C)=O)O2)C=C[C@@H]1Oc1ccc(OC)cc1 do in these assays?
UCH37 DUB inh: 5.1

Results for COc1ccc(C=NNC(=O)c2cc(C34CC5CC(CC(C5)C3)C4)[nH]n2)cc1OC ?
UCH37 DUB inh: -0.2

What do the screens show for `Br/C(C=NNc1nc(N2CCOCC2)nc(N2CCOCC2)n1)=C\c1ccccc1`?
UCH37 DUB inh: 10.3

Five structures out of the list, arranged by molecular weight, rising:
How did O=C(CN1CCSCC1)NN=Cc1ccc(F)cc1F do in these assays?
UCH37 DUB inh: 2.7

Results for O=C(NN=Cc1cc([N+](=O)[O-])ccc1O)c1c[nH]c2ccccc12 ?
UCH37 DUB inh: 4.7

How did COc1ccccc1C(=O)NCC(=O)NN=Cc1ccc([N+](=O)[O-])cc1 do in these assays?
UCH37 DUB inh: 1.8

Results for Cc1ccc(N2CC(C(=O)NN=Cc3c(F)cccc3Cl)CC2=O)cc1 (stereo not given) ?
UCH37 DUB inh: 4.2

Results for COc1ccc(C=NNC(=O)c2cc(C34CC5CC(CC(C5)C3)C4)[nH]n2)cc1OC ?
UCH37 DUB inh: -0.2

The listing continues.
Results for Cc1ccc(C=NNC(=O)C(c2ccncc2)N2CCOCC2)cc1 (stereo not given) ?
UCH37 DUB inh: 0.9

What do the screens show for `CC(CC(=O)NCC(C)C)=NNC(=O)COc1cc(C)c(Br)cc1Br`?
UCH37 DUB inh: -0.5

How did O=C(C(=NNc1ccccc1)Sc1nnnn1-c1ccccc1)c1ccccc1 do in these assays?
UCH37 DUB inh: 3.0

Results for Cc1ccc(NC(=O)ON=C2CCCCC2c2ccc([N+](=O)[O-])cc2[N+](=O)[O-])cc1 (stereo not given) ?
UCH37 DUB inh: 3.4

How did COc1cc(C=NNC(=O)c2ccc(COc3cc(C)ccc3C(C)C)cc2)cc(OC)c1O do in these assays?
UCH37 DUB inh: -0.5

How did S=c1[nH]nc(-c2ccccc2)n1N=Cc1cccc(Br)c1 do in these assays?
UCH37 DUB inh: 0.5

How did O=C(O)COc1ccc(C=NNC(=O)C2CCCN2S(=O)(=O)c2ccc(Cl)cc2)cc1 (stereo not given) do in these assays?
UCH37 DUB inh: -0.8

How did CC(=O)Nc1sc(NN=Cc2ccc(O)cc2)nc1-c1cccs1 do in these assays?
UCH37 DUB inh: -6.7

What do the screens show for `O=C(NCc1ccccc1)C(=NO)c1ccccc1`?
UCH37 DUB inh: 3.7

What do the screens show for `COc1ccc(C=NNc2nonc2N)cc1OC`?
UCH37 DUB inh: 4.9

How did CSc1ccccc1NC(=S)NN=Cc1cccn1Cc1ccc(F)cc1 do in these assays?
UCH37 DUB inh: 6.8

Results for O=C(NN=Cc1cc(Cl)cc([N+](=O)[O-])c1O)c1cccc(S(=O)(=O)N2CCOCC2)c1 ?
UCH37 DUB inh: 9.3

What do the screens show for `O=C(CN1CCCCCC1)NN=Cc1cccs1`?
UCH37 DUB inh: 1.1

How did CC(=NN=c1sc2ccccc2n1C)c1ccccn1 do in these assays?
UCH37 DUB inh: 6.6

How did O=C(NN=Cc1cccc(Oc2ccccc2)c1)c1cc[n+]([O-])cc1 do in these assays?
UCH37 DUB inh: 2.7

Results for CC(=NNC(=O)c1ccncc1)c1cccnc1 ?
UCH37 DUB inh: 2.9

What do the screens show for `COC(=O)c1ccc(C=NNC(=O)CNc2cccc(C)c2)cc1`?
UCH37 DUB inh: 1.6

What do the screens show for `CCOC(=O)c1c(-c2ccc(C)cc2)csc1N=CN(C)C`?
UCH37 DUB inh: 4.6

How did CCN=c1scc(-c2ccco2)n1N=Cc1ccc(OC)c(O)c1 do in these assays?
UCH37 DUB inh: 0.8

How did COc1ccc(C=NNC(=O)CON=C(C)c2cccs2)cc1 do in these assays?
UCH37 DUB inh: 0.0

How did O=[N+]([O-])c1ccc(-c2ccc(C=Nc3c(-c4ccco4)nc4ccccn34)o2)c(Cl)c1 do in these assays?
UCH37 DUB inh: 3.9

How did COc1ccc(Cc2nnc(NN=Cc3ccc(N(C)C)cc3)[nH]c2=O)cc1OC do in these assays?
UCH37 DUB inh: 9.5

What do the screens show for `O=C(CC(=O)Nc1ccc(Cl)cc1)NN=Cc1cccc(F)c1`?
UCH37 DUB inh: 0.8

Results for Cc1ccccc1OCC(=O)NN=C1CCOc2c(C)cccc21 ?
UCH37 DUB inh: -0.8

How did CC(=NNC(=O)c1ccccc1C)c1ccc(N2CCOCC2)cc1 do in these assays?
UCH37 DUB inh: 6.7

How did COc1ccccc1NS(=O)(=O)c1cc([N+](=O)[O-])ccc1NN=Cc1sc(N2CCOCC2)nc1-c1ccccc1 do in these assays?
UCH37 DUB inh: 10.0

What do the screens show for `CCOc1ccc(N(CC(=O)NN=C(C)c2cccc(NC(C)=O)c2)S(=O)(=O)c2ccccc2)cc1`?
UCH37 DUB inh: 6.5

How did CC(=NNS(=O)(=O)c1cccc([N+](=O)[O-])c1)c1ccncc1 do in these assays?
UCH37 DUB inh: 1.1

Results for Cc1ccc(C=Nn2nnnc2N)cc1[N+](=O)[O-] ?
UCH37 DUB inh: 3.8

How did CC(C)(C)c1ccc(NN=C(C#N)S(=O)(=O)C(C)(C)C)cc1 do in these assays?
UCH37 DUB inh: 3.8

Results for O=C1c2ccccc2NC(c2ccc(O)cc2)N1N=Cc1ccc(O)cc1 (stereo not given) ?
UCH37 DUB inh: -4.4

How did Nc1c(Cl)ncnc1NN=Cc1ccncc1 do in these assays?
UCH37 DUB inh: 6.3

How did O=[N+]([O-])c1cc(-c2ccc(C=Nc3nc4ccccn4c3-c3ccco3)o2)ccc1Cl do in these assays?
UCH37 DUB inh: -14.0

What do the screens show for `Cc1nnsc1C(=O)NN=Cc1cccc(C(F)(F)F)c1`?
UCH37 DUB inh: 4.8

How did N#Cc1c(Sc2ncc(C(F)(F)F)cc2Cl)nsc1CC=NOCc1ccccc1Br do in these assays?
UCH37 DUB inh: 1.4

How did COc1ccc(C=NNC(=O)CNC(=O)c2ccc3c(c2)OCCO3)c(C(=O)O)c1OC do in these assays?
UCH37 DUB inh: 0.8

Results for CC(=NNC(=O)c1ccc2c(c1)OCO2)c1cccc([N+](=O)[O-])c1 ?
UCH37 DUB inh: 2.2

What do the screens show for `Cc1ccc(S(=O)(=O)NN=Cc2ccc(C)o2)cc1`?
UCH37 DUB inh: 0.1

What do the screens show for `CC(=NNC(=O)CSCc1ccc([N+](=O)[O-])cc1)c1ccccc1O`?
UCH37 DUB inh: -2.4

Results for CCCCOc1ccc(C(=O)NN=Cc2ccc(OCCN3CCCCC3)c(OC)c2)cc1 ?
UCH37 DUB inh: 2.4

What do the screens show for `COc1ccc(NS(=O)(=O)c2cccc(NC(=NS(=O)(=O)c3ccccc3)c3ccc(F)cc3)c2)cc1`?
UCH37 DUB inh: -0.1

How did Cc1ccc(NC(=S)NN=Cc2c(C)nn(-c3ccccc3)c2N2CCCC2)cc1 do in these assays?
UCH37 DUB inh: -1.2

Results for O=[N+]([O-])c1ccc(C=Nn2c(C3CCCCC3)n[nH]c2=S)cc1 ?
UCH37 DUB inh: 4.3

Results for CC(=NNC(=O)C(O)c1ccccc1)c1ccc(Cl)cc1 (stereo not given) ?
UCH37 DUB inh: 0.8

How did CCOC(=O)c1ccc2c(c1)nc(SCC(O)=C(C#N)c1nc3ccccc3[nH]1)n2CC do in these assays?
UCH37 DUB inh: -8.1

How did COc1ccc2ccccc2c1C=NNC(=O)c1ccccc1F do in these assays?
UCH37 DUB inh: -0.3

What do the screens show for `COc1ccccc1C=NNc1cc(C)nc(N2CCOCC2)n1`?
UCH37 DUB inh: -47.0

Results for CC(Cn1cnc([N+](=O)[O-])n1)=NNC(=O)c1ccccc1 ?
UCH37 DUB inh: 4.1

Results for CCON=C(C)c1c(O)c2ccccc2n(C)c1=O ?
UCH37 DUB inh: 3.0

What do the screens show for `Cc1nc2ccc(C(=O)NN=Cc3ccc(O)cc3)cc2[nH]1`?
UCH37 DUB inh: 4.3

How did CCOc1ccc2ccccc2c1C=NNC(=O)CNC(=O)c1ccccc1O do in these assays?
UCH37 DUB inh: -12.7

Results for CC(CC(=O)Nc1cc(C)cc(C)c1)=NNC(=O)c1ccccn1 ?
UCH37 DUB inh: 0.1

What do the screens show for `O=C(COc1ccc(Cl)cc1)NN=CCCc1ccccc1`?
UCH37 DUB inh: 0.2

What do the screens show for `CC(/C=C/c1ccc2c(c1)OCO2)=NNC(=O)c1ccc(C)nc1`?
UCH37 DUB inh: 8.0

Results for CC(=NO)C(CN(C)C)=NO ?
UCH37 DUB inh: 1.0

Results for COc1cccc(C=NNC(=O)CSc2cccc3cccnc23)c1 ?
UCH37 DUB inh: -52.8

What do the screens show for `Cc1cccc(C)c1-n1c(C)cc(C=NNc2ccc([N+](=O)[O-])cn2)c1C`?
UCH37 DUB inh: 3.7

Results for C(=NN1CCN(Cc2ccccc2)CC1)c1cccnc1 ?
UCH37 DUB inh: 1.8

What do the screens show for `Cc1ccc(C=NNC(=O)c2ccc3nc[nH]c3c2)s1`?
UCH37 DUB inh: 8.4

Results for C=CCOc1ccc(C=Nn2nnnc2N)cc1OC ?
UCH37 DUB inh: -4.9

How did CCN(Cc1ccccc1)c1ccc(C=NN2CCOCC2)cc1 do in these assays?
UCH37 DUB inh: 2.5

Results for Cc1ccc(C=Nn2c(-c3ccccc3)n[nH]c2=S)cc1 ?
UCH37 DUB inh: 1.1
